D2 ag: human D2 receptor agonism in beta-arrestin assay | activation, % (test concentration not listed) | DiscoveRx PathHunter D2 beta-arrestin, luminescence, 90 min; 100% = 57 uM dopamine signal | P14416 | AID 624465 | hit rate 0.084% among 360,000; in the data active = activation above about 40%; inconclusive = about 15% to 40%; inactive = below about 15%; note: compound concentration not given in the record; the text of the record calls up to 30% inactive
Target sequence (P14416 whole entry, looked up): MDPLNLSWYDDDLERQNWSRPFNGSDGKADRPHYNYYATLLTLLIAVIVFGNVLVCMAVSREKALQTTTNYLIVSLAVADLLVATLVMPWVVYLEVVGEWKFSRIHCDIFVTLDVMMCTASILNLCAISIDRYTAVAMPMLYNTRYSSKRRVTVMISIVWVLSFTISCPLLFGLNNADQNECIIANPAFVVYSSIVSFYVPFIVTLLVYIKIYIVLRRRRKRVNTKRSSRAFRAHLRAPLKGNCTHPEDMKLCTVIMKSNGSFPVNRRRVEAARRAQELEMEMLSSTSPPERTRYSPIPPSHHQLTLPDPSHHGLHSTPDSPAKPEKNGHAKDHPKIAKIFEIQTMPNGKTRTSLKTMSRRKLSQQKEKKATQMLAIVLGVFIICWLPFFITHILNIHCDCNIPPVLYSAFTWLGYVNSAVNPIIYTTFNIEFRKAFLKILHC
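DiscoveRx PathHunter D2 beta-arrestin cells (2,100/well) attached overnight, then compound-stimulated 90 min at 37 C in HBSS/10 mM HEPES/0.1% Tween-20 buffer; beta-galactosidase complementation read by luminescence after 1 h at ambient temperature. Dopamine 57 uM final (EC100) as control.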
PINK1 modulator: PINK1 expression modulation. AID 624263. Potency, µM (top dose mostly 76.6 µM), inactives show at the top dose activation (PINK1 increase), most hits filed as activators. hit rate 0.2% among 410,000. PINK1 immunofluorescence, high-content cytometry, 24 h; active = well fitted activation curve with a large enough effect; inconclusive = small, poorly fitted or top-dose-only effect; inactive = flat fitted curve, though single readings scatter; cell line not stated here;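 note: potency is the fitted concentration of half-maximal effect; % of control where 0% means no effect; nearly all actives have a fitted effect of over 65% in size; a mitochondrial uncoupler was the plate control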
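Decision-based qHTS: stable cells, 24 h exposure to five compound concentrations, CCCP as control. Fixed cells stained for PINK1 plus nuclear, mitochondrial and cell markers, cytometer read.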
Six1-Eya2 blk: Six1/Eya2 interaction inhibition; Q15475+O00167; AlphaScreen GST-Six1/His-Eya2 binding, biochemical; stronger effect = lower value; control for the full effect not named in the record; hit rate 0.56% among 360,000; activity change, % (concentration not given with the values); in the data active = activity change below about -65%; inconclusive = about -30% to -65%; inactive = above about -30%; note: % is set by controls: 0 for no effect and ±100 for the full control effect
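Compounds are tested against tagged Six1 and Eya2 proteins bridged by glutathione donor and nickel acceptor beads; after a one-hour incubation at 37 °C without light, AlphaScreen emission is recorded.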
TRPML1 blocker: human mucolipin-1 channel inhibition. Q9GZU1. TRPML1-inducible cells, Ca2+ dye fluorescence, FDSS; stronger effect = lower value; inhibition of EC80 agonist-evoked calcium signal. activity change, negative = inhibition, % (no concentration beside the values). hit rate 0.02% among 390,000. AID 624415; in the data active means activity change below about -50%; inconclusive means about -30% to -50%; inactive means above about -30%;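 note: stimulus is agonist 54-4 at its EC80 concentration; % is set by controls: 0 for no effect and ±100 for the full control effect; compound concentration not given in the record; the text of the record puts the active cut at -80%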
Target sequence (Q9GZU1 whole entry, looked up): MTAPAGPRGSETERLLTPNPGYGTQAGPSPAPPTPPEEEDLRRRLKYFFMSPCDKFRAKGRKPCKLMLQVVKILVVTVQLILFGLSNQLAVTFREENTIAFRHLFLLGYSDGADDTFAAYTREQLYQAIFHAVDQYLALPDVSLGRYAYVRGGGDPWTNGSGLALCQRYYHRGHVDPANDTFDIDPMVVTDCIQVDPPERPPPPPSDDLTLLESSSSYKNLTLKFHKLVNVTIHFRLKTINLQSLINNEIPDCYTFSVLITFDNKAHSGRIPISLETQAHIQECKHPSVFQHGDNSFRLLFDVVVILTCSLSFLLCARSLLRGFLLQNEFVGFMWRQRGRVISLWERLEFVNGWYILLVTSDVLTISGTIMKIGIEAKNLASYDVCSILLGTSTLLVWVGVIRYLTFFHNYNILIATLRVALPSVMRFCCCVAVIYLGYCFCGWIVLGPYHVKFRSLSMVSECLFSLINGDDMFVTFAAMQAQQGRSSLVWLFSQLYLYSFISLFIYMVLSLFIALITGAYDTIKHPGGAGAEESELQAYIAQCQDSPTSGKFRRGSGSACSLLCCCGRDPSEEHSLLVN
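Tet-induced TRPML1-DL cells loaded with Ca8 no-wash calcium dye were read kinetically on FDSS. Compound addition was followed by EC80 agonist 54-4 (4 uM final); inhibition was read over 110 s.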
D2 PAM: potentiates the human D2 dopamine receptor allosterically; P14416; DiscoveRx D2 beta-arrestin cells, luminescence, 90 min; 100% = 57 uM dopamine signal; potentiation, % (test concentration not listed); hit rate 0.23% among 360,000; active = potentiation of 50% or more; inconclusive = 30% to 50%; inactive = 30% or less;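 note: compound concentration not given in the record; tested on top of an EC20 dose of dopamine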
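PathHunter beta-arrestin assay in DiscoveRx D2 cells. Compounds were added with an EC20 of dopamine (50 nM final) for 90 min at 37 deg C. Luminescence was read 1 h after detection reagent, with 57 uM dopamine as the EC100 control.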
TRPML1 ag: agonists of human TRPML1 channel. Q9GZU1. TRPML1-expressing cells, Ca2+ dye fluorescence, FDSS; host cell line not named in the record; reference of the full effect not given here. activation, % (test concentration not listed). hit rate 0.12% among 410,000; in the data active = activation above about 50%; inconclusive = about 30% to 50%; inactive = below about 30%; note: 0% is about no effect; the text of the record puts the active cut at 80%
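Tet-induced TRPML1-DL cells, 1,500 per well, cultured overnight, were loaded with a no-wash Ca2+ dye for 45–90 min. Calcium fluorescence was recorded on the FDSS for 110 s after compound addition, before the EC80 agonist (4 uM 54-4) was added.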
* hit, by the source's call; ? = inconclusive; . = no result given; & = joins results of further samples; [ ] = remark or other dose.

Screens in order – D2 ag, PINK1 modulator, Six1-Eya2 blk, TRPML1 blocker, D2 PAM, TRPML1 ag
> O=C(CN1CCN(Cc2ccc(Cl)cc2)CC1)N/N=C/c1ccccc1F
  -4.9, 6.2%, 0, 3, -26, -1.0
> Cc1ccc2cc(CN(Cc3ccco3)C(=O)c3ccccc3)c(=O)[nH]c2c1C
  -4.7, 9.5%, -1, 9, -14, -0.3
> CCCOc1ccc(N2C(=O)CC(N(Cc3ccco3)C(C)=O)C2=O)cc1 (stereo unspecified)
  -3.3, -1.2%, 1, 7, -4, -0.7
> COc1ccc(N(Cc2cc3ccc(C)cc3[nH]c2=O)C(=O)c2ccco2)cc1
  -2.0, -0.9%, -8, 7, -12, -1.7
> Cc1nn(-c2ccc(N3CCCCC3)nn2)c(C)c1CCC(=O)Nc1ccc(F)c(F)c1
  1.9, 1.1%, 1, -7, 2, 0.7
> CC(C)C(C(=O)OCC(=O)c1ccccc1)N1C(=O)C2C3C=CC(C3)C2C1=O (stereo unspecified)
  -7.9, 0.7%, 3, 39, 1, 1.1
> Cc1nnc(SCC(=O)c2c(N)n(C)c(=O)n(C)c2=O)[nH]c1=O
  -0.1, 0.7%, ?, -1, 18, -0.7
> Cc1cccc(C(=O)OC(C)C(=O)Nc2ccc(S(=O)(=O)Nc3ncccn3)cc2)c1C (stereo unspecified)
  14, 0.2%, -1, 10, -7, 0.4
> Cc1ccccc1C1CCCN(Cc2nc(CC3CC3)no2)C1 (stereo unspecified)
  0.2, 0.7%, 2, 4, 0, 0.9
> c1ccc(CSc2ccc(-c3cccnc3)nn2)nc1
  4.2, -1.6%, 6, -5, 2, 0.6
> COc1ccc(CNC(=O)c2ccc(Cn3nc(C)cc3C)o2)cc1
  0.9, -0.4%, 2, 16, 3, -0.7
> COC(=O)c1ccc(OC(=O)c2ccncc2)cc1O
  1.2, 2.1%, -3, -8, -6, 1.3
> Nc1c(C(=O)Nc2ccccc2)sc2nc3c(c(-c4ccco4)c12)CCCC3
  -2.7, 5.5%, 13, 4, 3, 2.7
> CCOc1cc(NC(=S)NCC2CCCO2)c(OCC)cc1NC(=O)C1CC1 (stereo unspecified)
  0.9, 1.0%, 10, 14, 0, 0.3
> CCCc1nnc2c(N(C)S(=O)(=O)c3ccccc3)nc3ccccc3n12
  2.4, 9.9%, 11, 7, -2, -0.4
> Nc1nc(=O)n(C2OC(CO)C(O)C2O)cc1F (stereo unspecified)
  -1.1, 0.0%, 2, ., -11, -0.6
> O=C(COC(=O)C(O)C(O)C(=O)OCC(=O)c1ccc(C(F)(F)F)cc1)c1ccc(C(F)(F)F)cc1 (stereo unspecified)
  -12, 0.5%, 5, 8, -23, -0.5
> Cc1c(Br)cc(C(=O)NCc2ccco2)c(C)c1C
  -4.7, 8.9%, -16, 10, -7, -0.3
> Cc1ccc(NC(=O)COC(=O)c2ccc(Cl)nc2)cc1S(=O)(=O)N1CCCCC1
  -1.1, -1.0%, -9, 5, -3, 1.3
> COCCn1c(=NC(=O)c2sc3ccccc3c2Cl)sc2cc(S(N)(=O)=O)ccc21
  3.5, 13%, 2, 11, -15, 0.9
> COc1ccc(CCNC(=O)C2(C)CCC(=O)N2CCC(C)C)cc1OC (stereo unspecified)
  -4.6, 4.6%, -1, 15, -3, -0.8
> NC(=O)c1c(NC(=O)CS(=O)(=O)c2ccc(Cl)cc2)sc2c1CCCC2
  ., -1.8%, ., ?, ., -0.3
> O=C(Nc1ccc2c(c1)OCCO2)c1ccc(Br)s1
  -1.6, ?, 1, -8, -23, 1.7
> CN(CC(=O)Nn1cnnc1)S(=O)(=O)c1ccccc1
  -0.3, 0.0%[38.3 µM], 5, -4, 2, 0.4
> O=C(CC(=O)Nc1cccc(F)c1)Nc1cccc(F)c1
  -0.7, 0.5%, 21, -1, -24, 1.1
> O=C(NCc1ccc(Cl)cc1)C1(c2cccs2)CCOCC1
  ., 2.6%, ., -7, ., -0.3
> COc1ccc(-c2cc(CCCC(=O)N3CCN(c4ccc(OC)cc4)CC3)no2)cc1
  -0.4, -2.4%, -2, -11, 2, 0.0
> Cc1onc(NC(=O)c2ccc(Cl)cc2Cl)c1Br
  -2.2, 1.3%, 1, -5, -4, 0.1
> CC(=O)Oc1ccc(C(=O)[C@H]2[C@H]3C(=O)N(c4ccc(C)cc4C)C(=O)[C@H]3[C@@H]3C=CC=NN32)cc1
  -4.2, -1.1%, -2, 11, -7, -0.1
> Cc1c(C(c2ccccc2)c2c(C)n(C)n(-c3ccccc3)c2=O)c(=O)n(-c2ccccc2)n1C
  -0.9, -0.6%, 2, 11, -5, -0.4
> CCOc1cc(NC(=O)c2ccco2)c(OCC)cc1NC(=O)COc1ccccc1C
  -4.4, 5.6%, 1, 4, -10, -0.7
> CCn1cc(CN2CCC(n3nccc3NC(=O)c3ccc(OC)cc3)CC2)cn1
  -3.1, -1.6%, 6, -12, -11, 0.0
> Cc1cc(C)nc(SCc2ccc([N+](=O)[O-])cc2)n1
  7.2, -0.6%, -10, -10, -6, -0.5
> CCNC(=O)c1cc2c(c(-c3cccc(-c4ccccc4F)c3)n1)[C@@H](CCO)N(C(=O)CC1CC1)C2
  ., 2.2%, -4, ., ., -0.5
> Nc1nc(Sc2ccc([N+](=O)[O-])cc2[N+](=O)[O-])n[nH]1
  0.8, 3.8%, 7, 6, 7, 1.9
> O=C1CSC(c2ccccc2O)N1Cc1ccccc1 (stereo unspecified)
  -4.0, -3.1%, 4, -11, -3, 2.6
> O=C1CS(=O)(=O)C2(C(=O)N(Cc3cccc(F)c3)c3ccccc32)N1c1ccccc1 (stereo unspecified)
  ., -6.1%, ., -6, ., 1.6
> Cn1/c(=N/NC(=O)c2ccccc2Br)sc2ccccc21
  -5.2, 1.6%, 3, 9, -5, -0.1
> Cn1cc(S(=O)(=O)N2CCCCCC2)cc1C(=O)N1CCN(c2ccc(Cl)cc2)CC1
  ., 0.1%, ., 18, ., -0.2
> Cn1nnnc1SCC(=O)Nc1cccc(S(=O)(=O)N2CCCC2)c1
  -1.5, 1.4%, 2, 25, -11, 1.0
> Cc1ccc(C)c(NS(=O)(=O)c2c(C)nc3sccn3c2=O)c1
  -1.4, 1.1%, 5, 1, 0, -0.7
> CCOc1ccc(Cc2nnc(SCC(=O)Nc3ccc(OC)cc3)n(N)c2=O)cc1
  -5.3, 18%, 32, 33, -13, 1.7
> O=C1NC(=S)N(C(=O)c2ccc(F)cc2)/C1=C/c1cccnc1
  -11, 1.1%, -7, 28, -6, -0.1
> Cc1nnc(SCC(=O)NC23CC4CC(CC(C4)C2)C3)s1
  0.8, 0.7%, 3, 5, 4, -0.9
> CCCCCOc1ccc(CSC(=N)N)cc1[N+](=O)[O-]
  -10, -3.8%, 26, 15, -28, 4.2
> Cc1ccc(C2CC(c3ccc(Br)cc3)=NN2C(=O)CSC2=NN3CCCC(=O)N=C3S2)cc1 (stereo unspecified)
  -2.3, -0.7%, -10, 5, -8, -0.6
> O=C(CCn1ccnc1)Nc1nc2ccccc2[nH]1
  -1.0, -0.3%, -6, -16, -4, -0.2
> O=C(NCCCl)NNC(=O)c1cc2ccccc2cc1O
  -1.4, -3.1%, 16, -7, 0, -0.8
> COc1ccc(CC(=O)Nc2ccc(S(=O)(=O)N3CCCC3)cc2)cc1OC
  -0.3, -0.9%, -26, -2, -6, -0.4
> COc1ccccc1NS(=O)(=O)c1cccc(C(=O)N2CCCC2)c1
  0.0, -0.3%, -2, -6, -4, -0.6

Only PINK1 modulator, D2 ag and TRPML1 blocker, for some of the entries so far:
| Structure | PINK1 modulator | D2 ag | TRPML1 blocker |
| --- | --- | --- | --- |
| O=C(CCn1ccnc1)Nc1nc2ccccc2[nH]1 | -0.3% | -1.0 | -16 |
| O=C(NCCCl)NNC(=O)c1cc2ccccc2cc1O | -3.1% | -1.4 | -7 |
| COc1ccc(CC(=O)Nc2ccc(S(=O)(=O)N3CCCC3)cc2)cc1OC | -0.9% | -0.3 | -2 |
| COc1ccccc1NS(=O)(=O)c1cccc(C(=O)N2CCCC2)c1 | -0.3% | 0.0 | -6 |

(further entries)
Screens in order – D2 ag, PINK1 modulator, Six1-Eya2 blk, TRPML1 blocker, D2 PAM, TRPML1 ag
> CC(=O)Nc1sc(C)c(C)c1CN1CCN(Cc2ccccc2)CC1
  0.0, -1.9%, -3, 10, -2, 0.3
> Cc1nc(-c2cccc(NC(=O)Nc3ccccc3C(F)(F)F)c2)no1
  ., 0.0%, ., 25, ., 0.4
> CCc1cccc(NC(=O)C2CCCN(S(=O)(=O)c3cccs3)C2)c1 (stereo unspecified)
  -3.8, -1.1%&-0.6%, 39, -28&22, -6, 1.5&1.0
> CCOC(=O)c1cc(C#N)c(SC)nc1-c1ccccc1
  -3.5, -1.7%, 33, -1, 0, 4.2
> Cn1ncc(Cl)c1C(=O)Nc1sc2c(c1C(N)=O)CCC2
  -2.1, 1.6%, 24, 19, 2, 0.5
> NC(=O)NNc1ncc(C(F)(F)F)cc1Cl
  -5.9, 1.6%, 10, -21, -7, -0.7
> Cc1sc2nc(Cc3ccccc3)[nH]c(=O)c2c1-c1ccccc1
  -5.0, 8.9%, 6, -7, 0, -0.6
> Cc1ccc(C(=O)NCCCNC(=O)c2ccco2)cc1
  3.2, -1.2%, -3, 11, -2, 2.0
> COc1ccc(C(CC(=O)NCc2ccccc2Cl)N2Cc3ccccc3C2=O)cc1OC (stereo unspecified)
  ., -3.1%, ., 1, ., 0.6
> CCN(c1ccccc1)S(=O)(=O)c1cccc(C(=O)NCC(c2ccco2)N2CCCCC2)c1 (stereo unspecified)
  -1.9, 0.3%, -18, -6, -8, 0.4
> CC(=NNS(=O)(=O)c1ccc(C)cc1)c1ccccc1
  1.4, 0.9%, 0, -1, -4, 2.6
> Cc1ccc(NC(=O)[C@H](Cc2ccccc2)NC(=O)[C@@H]2Cc3ccccc3CN2)c(C)c1
  -5.8, 1.1%, 6, 9, -8, 0.0
> COc1ccc(CNC(=O)C(=O)Nc2ccccc2OC)cc1
  ., 7.6%, ., 49, ., 3.2
> O=C(/C=C/Nc1ccc(S(=O)(=O)Nc2ncccn2)cc1)c1ccc(Cl)c(Cl)c1
  -6.9, ?, 9, 12, 4, -0.5
> COc1ccccc1NS(=O)(=O)c1ccc(OC)c([N+](=O)[O-])c1
  -3.9, 0.7%, 3, 19, -25, -0.1
> Cc1nc2nc(SCC(=O)NCCc3ccc(Cl)cc3)nn2c(C)c1Cc1ccccc1Cl
  ., 2.4%, ., 29, ., 0.1
> O=C(CCCSc1ccccc1)Nc1cccc(CO)c1
  -0.7, 1.3%, 11, -7, -4, 1.7
> CC(=O)Nc1nc2cc(C(N)=O)ccc2s1
  -1.3, 0.4%, -5, -10, -4, -0.3
> CCN(CC)CC#CCC(C)(c1ccccc1)c1ccccc1
  -2.9, 13%[38.3 µM], -8, 9, -20, 0.3
> O=C(NCCc1ccccc1)C(=O)c1c[nH]c2ccccc12
  -0.8, 4.2%, -5, 11, -2, -0.9
> O=C(NCCCN1CCOCC1)c1cccnc1
  -2.5, -1.6%, 5, 0, -15, 0.0

Screening data from PubChem BioAssay.
